Sfp inh – blocks B. subtilis Sfp PPTase activity; Potency, µM, for inactives: max response, negative = inhibition, hits mostly inhibitors; Biochemical Sfp PPTase activity, qHTS; AID 1490; 310,000 tested, 3.5% active; Q9F4F7; active means well fitted inhibition curve with a large enough effect; inconclusive means small, poorly fitted or top-dose-only effect, or another doubt; inactive means no such curve, though single readings can be large or run the other way;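 further: the enzyme is Sfp with the accession as filed and its product quenches rhodamine fluorescence; potency means the concentration at half of the fitted maximal effect; 0% = enzyme reaction without inhibitor and -100% = no enzyme wells; top concentration of the series not given in the record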
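With Hepes-Na pH 7.6 buffer containing 10 mM MgCl2, Sfp (15 nM) modified BHQ-2-YbbR (12.5 uM) using rhodamine-CoA (5 uM). Two reads 30 minutes apart at 525/598 nm yielded each well's rate.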
PINK1 modulator – changes PINK1 expression; 410,000 tested, 0.2% active; PINK1 immunofluorescence, high-content cytometry, 24 h; Potency, µM (highest dose often 76.6 µM), for inactives: top-dose activation (PINK1 increase), most hits filed as activators; active = well fitted activation curve with a large enough effect; inconclusive = small, poorly fitted or top-dose-only effect; inactive = flat fitted curve, though single readings scatter; cell line not stated here;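 further: potency means the concentration at half of the fitted maximal effect; % of control where 0% means no effect; nearly all actives have a fitted effect of over 65% in size; a mitochondrial uncoupler was the plate control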
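PINK1 protein, normally rapidly degraded, was detected by immunofluorescence after 24 hour compound treatment of a stable cell line. Titration data (5 concentrations) came from laser-scanning cytometry, with CCCP-treated wells as controls.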
gsp ag – activates gsp, the McCune-Albright syndrome mutation; gsp mutant cells, cAMP HTRF, 30 min; control for the full effect not named in the record; Potency, µM (top dose mostly 76.9 µM), without a hit: at the highest dose activation (cAMP increase), actives largely listed as activators; 340,000 tested, 0.13% active; AID 624287; active = well fitted activation curve with a large enough effect; inconclusive = small, poorly fitted or top-dose-only effect, or another doubt; inactive = no such curve, though single readings can be large or run the other way; cell line not stated here;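 further: phosphodiesterase inhibitor Ro 20-1724 added with compounds to block cAMP breakdown; potency means the concentration at half of the fitted maximal effect; nearly all actives have a fitted effect of over 60% in size; about a fifth of the inactives were tested at one dose only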
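Cells in DMEM/10% FBS with G418 were pretreated with compounds in DMSO plus […] (300 uM stock) for 30 min at 37C. cAMP was measured by HTRF (cAMP-d2 plus anti-cAMP antibody-K) after 30 min at room temperature.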
D2 agonist – activates the human D2 dopamine receptor; DiscoveRx PathHunter D2 beta-arrestin, luminescence, 90 min; 100% = 57 uM dopamine signal; activation, % (test concentration not listed); 360,000 tested, 0.084% active; in the data active = activation above about 40%; inconclusive = about 15% to 40%; inactive = below about 15%; further: compound concentration not given in the record; the text of the record calls up to 30% inactive
Target sequence (P14416 whole entry, looked up): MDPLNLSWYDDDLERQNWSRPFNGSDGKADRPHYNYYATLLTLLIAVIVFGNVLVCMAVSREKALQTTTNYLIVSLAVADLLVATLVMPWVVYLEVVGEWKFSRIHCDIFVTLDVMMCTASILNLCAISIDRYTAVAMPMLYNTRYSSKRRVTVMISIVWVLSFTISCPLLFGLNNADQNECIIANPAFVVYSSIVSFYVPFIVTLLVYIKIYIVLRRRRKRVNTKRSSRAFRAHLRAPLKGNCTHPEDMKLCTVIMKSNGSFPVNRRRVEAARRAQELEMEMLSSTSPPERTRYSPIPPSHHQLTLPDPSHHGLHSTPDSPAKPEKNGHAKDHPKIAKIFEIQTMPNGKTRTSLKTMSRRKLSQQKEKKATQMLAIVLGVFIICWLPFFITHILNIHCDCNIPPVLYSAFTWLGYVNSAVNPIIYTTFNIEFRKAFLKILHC
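Agonist mode: compounds alone added to overnight-plated D2 PathHunter cells for 90 min at 37 C, with 57 uM final dopamine (EC100) defining full response. Beta-arrestin recruitment detected by chemiluminescent reagent, read after 1 h at ambient temperature.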
ClpP mod – qHTS Assay for Activators of ClpP. 340,000 tested, 1.9% active. Potency, µM (highest dose often 57.5 µM), without a hit: top-dose activity change, negative = active. AID 651965, 2013. purified B. subtilis ClpP, FRET peptide cleavage, 20 min; active = well fitted falling curve with a large enough effect; inconclusive = small, poorly fitted or top-dose-only effect; inactive = no such curve, though single readings can be large or run the other way; further: potency means the concentration at half of the fitted maximal effect; the source files actives as falling curves though it sought activators and does not explain the sign; nearly all actives have a fitted effect of over 65% in size; many hits overshoot -100%
Target sequence (P80244 whole entry, looked up): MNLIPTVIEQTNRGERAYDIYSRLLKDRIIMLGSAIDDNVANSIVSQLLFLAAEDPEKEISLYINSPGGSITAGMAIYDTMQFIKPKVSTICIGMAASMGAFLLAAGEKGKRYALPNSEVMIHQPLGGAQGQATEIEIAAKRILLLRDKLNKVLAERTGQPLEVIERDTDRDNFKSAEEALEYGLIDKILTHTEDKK
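FRET quenching reversal measured ClpP activation: 10 microg/mL B. subtilis ClpP at pH 8 with the FRET-FV decapeptide, read at 430 nm after 320 nm excitation. The 20-min minus 0-min signal was scaled between DMSO/no-enzyme wells and ADEP (5.8 microM final).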
Menin MLL FP FL – inhibitors of human menin-MLL interaction, wild-type MLL peptide | AID 1766 | 290,000 tested, under 10 active | Fluorescence polarization, fluorescein-MLL peptide displacement from menin | FP activity change, % at 61.4 µM; inconclusive = falling polarisation curve, or a change in total fluorescence; inactive = total fluorescence flat and polarisation flat or rising; no compound was filed as active; the % refers to the polarisation; negative = inhibition;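 further: % of control where 0% means no effect; inhibitors lower the polarisation; unlabelled MLL peptide was the positive control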
gsp antagonist – gsp mutant antagonism. gsp-mutant cells, cAMP HTRF, 30 min; control for the full effect not named in the record. AID 624288. 340,000 tested, 0.4% active. Potency, µM (doses to about 76.9 µM), without a hit: at the highest dose activity change, negative = inhibition, hits mostly inhibitors; active = falling curve of any shape with a large fitted effect; inconclusive = falling curve, mostly with a smaller effect; inactive = flat or rising curve; cell line not stated here;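 further: intracellular cAMP measured with PDE inhibitor Ro 20-1724 present during compound exposure; potency means the concentration at half of the fitted maximal effect; on the % scale 0 is the no-effect control and ±100 the full control effect; nearly all actives have a fitted effect of over 65% in size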
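G418-selected cells were plated in DMEM/10% FBS for 16-24 h at 37C, then treated with compounds plus the PDE inhibitor […] (300 uM solution added) for 30 min at 37C. Intracellular cAMP was measured by HTRF after 30 min lysis at room temperature.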
Numbers without * were called inactive; ? = inconclusive; / = no result given; & = joins results of further samples; [ ] = another dose, or the depositor's remark.

Values run as follows: Sfp inh	PINK1 modulator	gsp ag	D2 agonist	ClpP mod	Menin MLL FP FL	gsp antagonist
COC(=O)c1c(NC(C)=O)csc1C
    11%	2.8%	10%[15.4 µM]	-0.4	0.9%	0.5	10%
CC(NC(=O)c1ccc(CS(C)(=O)=O)cc1)c1ccc(-c2ccccc2)cc1 (stereo unspecified)
    8%	18%	3%	2.2	/	0.7	14%
O=S(=O)(NC1CCCCCCC1)c1cccs1
    -5%	-1.1%	36%	-1.9	2.2%	-0.4	3%
Cc1ccc(S(=O)(=O)N2CCCCC2)cc1NC(=O)COC(=O)C1=COCCO1
    6%	1.4%	-7%[15.4 µM]	-0.9	/	-0.4	2%
O=C1CN=C(Nc2ccccc2)N1Cc1cccs1
    9%	2.8%	-4%	-0.4	0.5%	1.0	-3%
CC(=O)c1ccccc1NC(=O)COC(=O)CCCN1C(=O)c2cccc3cccc(c23)C1=O
    14%	3.2%	0%	-0.7	31%	3.2	-11%
Cc1cc(-c2cc(C(=O)NC3CCCC3)on2)nc(NCC2CC2)n1
    9%	-0.3%	37%	-2.2	-11%	0.1	1%
Cc1nn(C2CCS(=O)(=O)C2)c(Cl)c1/C=C/C(=O)OCC(=O)Nc1ccccc1[N+](=O)[O-] (stereo unspecified)
    10%	-2.6%	-12%[15.4 µM]	-2.6	0.7%	-0.5	-19%
COc1cccc(OC)c1C(=O)N1CCN(C(=O)c2ccc(-c3ccccc3)cc2)CC1
    5%	1.0%	29%	-1.9	-1.3%	-2.2	-20%
CC1(C)Cc2c(sc3c2c(=N)n(Cc2ccco2)c(=O)n3Cc2ccccc2)CO1
    -13%	-1.0%	-6%	-0.1	0.9%	9.6	-13%
NC(=O)C1CCCN1Cc1ccc2c(c1)OCO2 (stereo unspecified)
    /	1.4%	-30%	-2.4	-7.7%	/	6%
CCSc1nnc(SCC(=O)NNC(=O)c2ccccc2F)s1
    12%	1.4%	-15%[15.4 µM]	1.6	-7.8%	/	6%
COc1cc(CNc2nc3ccccc3n2C)cc(OC)c1OC
    6%	1.2%	-11%	-1.2	-0.9%	0.1	9%
C/C(=C\COc1cc(=O)[nH]c2ccccc12)CCC(O)C(C)(C)O (stereo unspecified)
    ?	-1.1%	/	3.9	-5.0%	2.7&14&-3.7	2%
CC(C)(C)c1ccc(S(=O)(=O)NC(=O)C2(C)CCN2C(=O)C2(c3ccc(Cl)cc3)CC2)cc1 (stereo unspecified)
    /	-1.2%	/	-2.6	1.1%	/	/
O=C(CSc1nc2ccccc2n1S(=O)(=O)c1ccccc1)N1CCCCC1
    7%	-0.1%	-36%[inhibitor]	-1.8	-6.9%	-1.3	4%
Cc1cccc(NS(=O)(=O)c2ccc(Oc3ccccc3)cc2)n1
    5%	-0.2%	?	0.4	22µM*	-1.2	-10%
COc1ccc(S(=O)(=O)CCC(=O)N2CCN(c3ccc([N+](=O)[O-])cc3)CC2)cc1
    11%	-2.1%	3%	3.4	0.7%	0.4	?
O=C(NC(=S)N1CCCc2ccccc21)c1ccc([N+](=O)[O-])cc1
    16µM*	/	-35%[inhibitor]	1.1	-5.0%	/	-15%
O=C(NNc1nc2ccc(Cl)cc2s1)c1cc(-c2cccs2)nc2ccccc12
    -4%	13%	-21%	4.7	30%	2.5	-26%
Cc1ccc(C)c(N2N=C(C(=O)Nc3cccc(S(=O)(=O)N4CCCCC4)c3)CCC2=O)c1
    /	1.2%	2%[15.4 µM]	2.3	-1.0%	/	-11%
O=C(NC(Cc1c[nH]c2ccccc12)c1nnc2n1CCCCC2)c1ccccc1 (stereo unspecified)
    15%	-2.5%[38.3 µM]	?	-1.7	-0.6%	-6.8	1%
COC(=O)C1=C(N)OC2=C(C(=O)CC(C)(C)C2)C1c1cccs1 (stereo unspecified)
    9%	2.9%	-1%	-4.7	-0.8%	3.1	-5%
Cc1cc(C)cc(COn2ccnc2)c1
    13%	0.5%	-1%	2.6	-2.1%	0.1	-9%
Cc1cc(=O)[nH]c(SCC(=O)N2CCN(C(=O)c3ccco3)CC2)n1
    /	-0.5%	3%	0.5	-0.7%	/	17%
COc1ccc(NC(=S)Nc2cccc(C(F)(F)F)c2)c(C)c1
    11%	0.3%	22%	0.0	-0.9%	-5.4	-4%
Cc1ccc(-c2nc3ccccc3[nH]2)s1
    50µM*	0.0%	10%	-0.7	-1.8%	-1.7	-1%
O=C(c1ccc(Cl)nc1)N1CCN(S(=O)(=O)c2ccc3c(c2)OCCO3)CC1
    /	10%	13%	-0.2	-0.5%	/	-14%
O=C(NCc1ccc(C(F)(F)F)cc1)C12CN(Cc3ccccc3)CC1C(c1cccc([N+](=O)[O-])c1)=NO2 (stereo unspecified)
    14%	2.1%	/	-0.4	1.5%	-1.0	-2%
COc1ccc(C(=O)Nc2ccccc2SCc2cc(=O)n3nc(C)sc3n2)cc1OC
    4%	0.4%	18%	1.8	/	1.4	-7%
Cc1ccc(SCC(=O)NCCSC(C)(C)C)cc1
    13%	2.0%	37%	-2.2	1.2%	0.5	2%
COc1cccc(OC)c1NC(=O)CN1CCN(C)CC1
    79µM*	-1.1%	-3%	-0.4	/	/	10%
COc1ccc(OC)c(-c2cc(C(=O)NCc3ccco3)no2)c1
    -10%	-0.1%[38.3 µM]	7%	-1.3	?	2.6	-8%
O=C(COC(=O)c1c(F)cccc1Cl)NC(=O)Nc1ccc2c(c1)OCCO2
    /	4.1%	13%	-0.2	3.1%	/	7%
O=C(NC1CCCCCCC1)c1c(O)c2ccccc2[nH]c1=O
    12%	/	-10%	0.0	-2.1%	-2.3	-1%
O=C(CNC1CCCCC1)Nc1cc(S(=O)(=O)N2CCOCC2)ccc1Cl
    13%	1.1%	3%[15.4 µM]	-4.7	/	-2.6	-6%
Cc1ccc(NC(=O)N2CCOCC2)c(C)c1
    16%	2.0%	-1%	-5.3	0.4%	4.0	-1%
Nc1cc(=O)[nH]c(SCC(=O)Nc2cc(S(=O)(=O)N3CCOCC3)ccc2Cl)n1
    -4%	1.5%	?	1.0	/	1.4	20%
COc1ccccc1N1CCN(C(=O)CCc2nnc3ccc(N4CCC(C)CC4)nn23)CC1
    3%	-1.9%	25%	3.5	-0.9%	0.0	-15%
CC(=O)Nc1ccc(SC(Sc2ccc(NC(C)=O)cc2)c2ccccc2)cc1
    /	-0.7%	1%	2.0	-8.2%	/	2%
N#Cc1ccc(S(=O)(=O)N2CCc3[nH]c4ccc(F)cc4c3C2)cc1
    10%	0.2%	-8%[15.4 µM]	-1.3	/	-0.4	-19%
CC(C)C(=O)Nc1ccc(NC(=S)NC(=O)c2cc3ccccc3o2)cc1
    7%	3.6%	26%[15.4 µM]	2.5	/	-5.3	-12%
CC(C)(C)S(=O)(=O)c1cnc(-c2ccc(Cl)cc2)nc1N
    21%	-0.2%	10%	-0.4	-0.6%	-1.7	18%
Cc1cc(/C=N/n2c(COc3ccccc3C)nc3ccccc3c2=O)c(O)c([N+](=O)[O-])c1
    -7%	5.7%	-16%	-0.9	0.9%	16	4%
CCc1ccccc1-n1c(SCC(=O)N2CCCC2)nc2[nH]ncc2c1=O
    -13%	0.7%	26%	-0.9	/	-1.5	7%
COc1ccc(-c2nc(NC(=O)c3ccco3)sc2C)cc1
    /	3.2%	-3%	-0.9	-10%	/	/
COc1ccc2sc(-c3ccc(N(C)C)cc3)c(C#Cc3cncn3C)c2c1
    /	-1.1%	?	-2.6	4.0%	/	-23%
O=C1C2CCCN2C(=O)N1CCCCN1CCN(CCO)CC1 (stereo unspecified)
    -15%	4.6%	?	-2.2	0.6%	7.4	14%
CCOC(=O)CSC(C)C(=O)Nc1nnc(C(C)C)s1 (stereo unspecified)
    13%	-0.3%	-24%	3.0	-1.5%	-3.5	2%
CC(C)(C)C(=O)CN1C2=NCCCN2c2ccccc21
    6%	1.4%	26%	-1.5	-1.6%	1.3	15%

Four entries from above, with each value named.
COc1ccc2sc(-c3ccc(N(C)C)cc3)c(C#Cc3cncn3C)c2c1
  Sfp inh = /; PINK1 modulator = -1.1%; gsp ag = ?; D2 agonist = -2.6; ClpP mod = 4.0%; Menin MLL FP FL = /; gsp antagonist = -23%

O=C1C2CCCN2C(=O)N1CCCCN1CCN(CCO)CC1 (stereo unspecified)
  Sfp inh = -15%; PINK1 modulator = 4.6%; gsp ag = ?; D2 agonist = -2.2; ClpP mod = 0.6%; Menin MLL FP FL = 7.4; gsp antagonist = 14%

CCOC(=O)CSC(C)C(=O)Nc1nnc(C(C)C)s1 (stereo unspecified)
  Sfp inh = 13%; PINK1 modulator = -0.3%; gsp ag = -24%; D2 agonist = 3.0; ClpP mod = -1.5%; Menin MLL FP FL = -3.5; gsp antagonist = 2%

CC(C)(C)C(=O)CN1C2=NCCCN2c2ccccc21
  Sfp inh = 6%; PINK1 modulator = 1.4%; gsp ag = 26%; D2 agonist = -1.5; ClpP mod = -1.6%; Menin MLL FP FL = 1.3; gsp antagonist = 15%

High-throughput results deposited in PubChem BioAssay by National Center for Advancing Translational Sciences (NCATS).

An unsorted share of the library; overall some 5.1% were active at least once.
